Assay outcomes (PubChem)
Menin MLL FP FL: qHTS Assay for Inhibitors Targeting the Menin-MLL Interaction in MLL Related Leukemias: Competition With Fluorescein Labeled MLL-derived Peptide | 290,000 tested, under 10 active | FP activity change, % at 61.4 µM | Fluorescence polarization, fluorescein-MLL peptide displacement from menin | AID 1766, 2009; inconclusive = falling polarisation curve, or a change in total fluorescence; inactive = total fluorescence flat and polarisation flat or rising; no compound was filed as active; the % refers to the polarisation; negative = inhibition;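 also: % of control where 0% means no effect; inhibitors lower the polarisation; unlabelled MLL peptide was the positive control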
TRPML1 inh: qHTS for Inhibitors of the Human Mucolipin Transient Receptor Potential 1 (TRPML1); Mucolipin-1 (Homo sapiens), Q9GZU1; TRPML1-inducible cells, Ca2+ dye fluorescence, FDSS; active compounds read low; inhibition of EC80 agonist-evoked calcium signal; activity change, negative = inhibition, % (test concentration not listed); 390,000 compounds, 0.02% hits; AID 624415, 2012; in the data active means activity change below about -50%; inconclusive means about -30% to -50%; inactive means above about -30%;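 also: stimulus is agonist 54-4 at its EC80 concentration; % is scaled to controls: 0 for no effect and ±100 for the full control effect; compound concentration not given in the record; the text of the record puts the active cut at -80%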
Target sequence (Q9GZU1 whole entry, looked up): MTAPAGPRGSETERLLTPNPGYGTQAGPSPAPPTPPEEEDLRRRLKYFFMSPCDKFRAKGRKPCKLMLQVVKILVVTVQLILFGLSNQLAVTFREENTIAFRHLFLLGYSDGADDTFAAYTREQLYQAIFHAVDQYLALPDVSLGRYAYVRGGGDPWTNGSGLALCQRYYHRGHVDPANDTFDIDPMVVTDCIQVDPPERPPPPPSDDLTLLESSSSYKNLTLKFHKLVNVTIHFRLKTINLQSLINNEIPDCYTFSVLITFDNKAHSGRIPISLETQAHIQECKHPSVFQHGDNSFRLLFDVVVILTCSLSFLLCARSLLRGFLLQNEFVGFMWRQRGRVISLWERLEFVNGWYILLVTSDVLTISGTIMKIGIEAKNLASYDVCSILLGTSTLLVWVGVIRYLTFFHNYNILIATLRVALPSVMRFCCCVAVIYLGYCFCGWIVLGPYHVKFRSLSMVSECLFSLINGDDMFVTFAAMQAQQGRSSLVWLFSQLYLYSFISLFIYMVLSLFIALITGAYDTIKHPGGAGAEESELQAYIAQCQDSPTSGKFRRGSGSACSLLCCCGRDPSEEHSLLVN
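Tet-induced TRPML1-DL cells loaded with Ca8 no-wash calcium dye were read kinetically on FDSS. Compound addition was followed by EC80 agonist 54-4 (4 uM final); inhibition was read over 110 s.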
gsp agonist: qHTS for Agonist of gsp, the Etiologic Mutation Responsible for Fibrous Dysplasia/McCune-Albright Syndrome: qHTS; gsp mutant cells, cAMP HTRF, 30 min; control for the full effect not named in the record; Potency, µM (doses to about 76.9 µM), for inactives: at the top dose activation (cAMP increase), usual class: activators; 340,000 compounds, 0.13% hits; active = well fitted activation curve with a large enough effect; inconclusive = small, poorly fitted or top-dose-only effect, or another doubt; inactive = no such curve, though single readings can be large or run the other way; cell line not stated here;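 also: phosphodiesterase inhibitor Ro 20-1724 added with compounds to block cAMP breakdown; potency is read from the fitted curve at half-maximal effect; nearly all actives have a fitted effect of over 60% in size; about a fifth of the inactives were tested at one dose only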
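Cells stably selected in G418 were plated at 2000/well, grown 16-24 hr, then given compounds in DMSO with the PDE inhibitor […] (300 uM solution added) for 30 min at 37C; cAMP was read by HTRF.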
gsp antag: qHTS for Antagonists of gsp, the Etiologic Mutation Responsible for Fibrous Dysplasia/McCune-Albright Syndrome: qHTS | gsp-mutant cells, cAMP HTRF, 30 min; control for the full effect not named in the record | Potency, µM (highest dose often 76.9 µM), without a hit: top-dose activity change, negative = inhibition, usual class: inhibitors | 340,000 compounds, 0.4% hits; active = falling curve of any shape with a large fitted effect; inconclusive = falling curve, mostly with a smaller effect; inactive = flat or rising curve; cell line not stated here;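 also: intracellular cAMP measured with PDE inhibitor Ro 20-1724 present during compound exposure; potency is read from the fitted curve at half-maximal effect; % is scaled to controls: 0 for no effect and ±100 for the full control effect; nearly all actives have a fitted effect of over 65% in size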
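Measurement of cellular cAMP by homogeneous time-resolved fluorescence following a 30 min compound exposure at 37C. The PDE inhibitor […] was present throughout; the assay buffer was DPBS with 0.05% BSA and 0.005% Tween 20.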
ClpP mod: qHTS Assay for Activators of ClpP; ATP-dependent Clp protease proteolytic subunit (Bacillus subtilis (strain 168)), P80244; purified B. subtilis ClpP, FRET peptide cleavage, 20 min; Potency, µM (series often up to 57.5 µM), without a hit: at the highest dose activity change, negative = active; 340,000 compounds, 1.9% hits; active = well fitted falling curve with a large enough effect; inconclusive = small, poorly fitted or top-dose-only effect; inactive = no such curve, though single readings can be large or run the other way; also: potency is read from the fitted curve at half-maximal effect; the source files actives as falling curves though it sought activators and does not explain the sign; nearly all actives have a fitted effect of over 65% in size; many hits overshoot -100%
Target sequence (P80244 whole entry, looked up): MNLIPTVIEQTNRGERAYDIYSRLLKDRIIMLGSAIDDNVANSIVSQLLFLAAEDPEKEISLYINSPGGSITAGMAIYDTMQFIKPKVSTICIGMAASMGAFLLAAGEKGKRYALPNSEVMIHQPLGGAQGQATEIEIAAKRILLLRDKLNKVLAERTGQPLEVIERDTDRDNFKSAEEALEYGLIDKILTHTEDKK
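ClpP 10 microg/mL final, pH 8 Tris/KCl buffer with BSA, glycerol, Tween-20; compound pinned in; FRET-FV substrate; RT 20 min; Ex320/Em430; ΔFRET vs ADEP 5.8 microM, DMSO, no enzyme.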
TRPML1 ag: qHTS for Agonists of the Human Mucolipin Transient Receptor Potential 1 (TRPML1); Mucolipin-1 (Homo sapiens), Q9GZU1; TRPML1-expressing cells, Ca2+ dye fluorescence, FDSS; host cell line not named in the record; reference of the full effect not given here; activation, % (test concentration not listed); 410,000 compounds, 0.12% hits; AID 624414, 2012; in the data active = activation above about 50%; inconclusive = about 30% to 50%; inactive = below about 30%; also: 0% is about no effect; the text of the record puts the active cut at 80%
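Calcium fluorescence on an FDSS kinetic reader gave the read-out. Tet-induced TRPML1-DL cells were plated overnight, dye-loaded (Ca8 with quencher, 45-90 min, room temperature, dark), then read 110 s after compound addition, and again 110 s after 4uM final 54-4 (EC80).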
* hit, by the source's call; [ ] = dose if it differs, or a comment.

`COc1cccc(N2CCN(C(=O)c3ccc4nc(N5CCCCC5)sc4c3)CC2)c1` gave Menin MLL FP FL 9.3, TRPML1 inh 20, gsp agonist 1%, gsp antag -18%, ClpP mod -8.4% and TRPML1 ag 3.9.
For CCN1CCc2c(sc(NC(=O)c3ccc(S(=O)(=O)N4CCCC4)cc3)c2C(=O)NC)C1 the results were Menin MLL FP FL 11, TRPML1 inh 2, gsp agonist inconclusive, gsp antag inconclusive, ClpP mod -1.1% and TRPML1 ag 0.6.
Screening CC1CC(C)CN(CCC(=O)Nc2ccc(Br)cc2)C1 (stereo not drawn) returned Menin MLL FP FL -0.5, TRPML1 inh -4, gsp agonist 9%[15.4 µM], gsp antag 7%, ClpP mod -2.3% and TRPML1 ag 6.4.
For O=C(NC(=S)Nc1ccc(Cl)c(C(=O)O)c1)c1ccc(OCc2ccccc2)cc1 the results were Menin MLL FP FL -1.7, TRPML1 inh 41, gsp agonist -6%, gsp antag inconclusive, ClpP mod 0.5% and TRPML1 ag 0.1.
COc1ccc(CNCC(=O)Nc2ccccc2-n2cccc2)cc1 was read as Menin MLL FP FL 4.4, TRPML1 inh 48, gsp agonist 17%, gsp antag 5%, ClpP mod -2.2% and TRPML1 ag 1.6.
`CCOC(=O)c1ccc(S(=O)(=O)N2CCN(C(=O)C3CSC4(C)CCC(=O)N34)CC2)cc1` (stereo not drawn) gave TRPML1 inh 0, gsp agonist 18%, gsp antag 3%, ClpP mod -4.2% and TRPML1 ag -0.9.
For CC(C)[C@H](NC(=O)c1ccccc1)C(=O)OCC(=O)N1CC(=O)Nc2ccccc21 the results were Menin MLL FP FL 8.5, TRPML1 inh -12, gsp agonist -2%, gsp antag 5%, ClpP mod -2.8% and TRPML1 ag 1.4.
`CC(C)(C)c1ccc(-c2nc(C#N)c(NCCCn3ccnc3)o2)cc1` gave Menin MLL FP FL -0.2, TRPML1 inh 10, gsp agonist 7%[15.4 µM], gsp antag -20% and TRPML1 ag 0.3.
Screening CC(=O)Nc1c(-c2ccccc2)nc2ncccn12 returned Menin MLL FP FL 0.1, TRPML1 inh -13, gsp agonist 9%, gsp antag 9%, ClpP mod 4.8% and TRPML1 ag -0.8.
For COc1cccc(NC(=O)CCCNC(=O)Cn2cnc3sc(C)c(C)c3c2=O)c1 the results were Menin MLL FP FL -0.5, TRPML1 inh 2, gsp agonist -5%[15.4 µM], gsp antag -3% and TRPML1 ag -0.7.

Sorted by heavy-atom count (smallest number first): three of the compounds above.
`CC(C)(C)c1ccc(-c2nc(C#N)c(NCCCn3ccnc3)o2)cc1` gave Menin MLL FP FL -0.2, TRPML1 inh 10, gsp agonist 7%[15.4 µM], gsp antag -20% and TRPML1 ag 0.3.
For CC(C)[C@H](NC(=O)c1ccccc1)C(=O)OCC(=O)N1CC(=O)Nc2ccccc21 the results were Menin MLL FP FL 8.5, TRPML1 inh -12, gsp agonist -2%, gsp antag 5%, ClpP mod -2.8% and TRPML1 ag 1.4.
For CCN1CCc2c(sc(NC(=O)c3ccc(S(=O)(=O)N4CCCC4)cc3)c2C(=O)NC)C1 the results were Menin MLL FP FL 11, TRPML1 inh 2, gsp agonist inconclusive, gsp antag inconclusive, ClpP mod -1.1% and TRPML1 ag 0.6.

Going on with the list.
For O=C(Nc1ccccc1)c1ccc2c(c1)OCCO2 the results were Menin MLL FP FL -1.6, TRPML1 inh 14, gsp agonist -47%[inhibitor], gsp antag -2%, ClpP mod 0.6% and TRPML1 ag 3.6.
For CN(c1ccccc1)c1nc(-n2ccnc2)nc(-n2ccnc2)n1 the results were Menin MLL FP FL -0.6, TRPML1 inh 9, gsp agonist -16%, gsp antag 13%, ClpP mod 0.4% and TRPML1 ag -1.1.
CCOC(=O)N1CCN(S(=O)(=O)c2ccc(C(=O)N(CCCN(C)C)c3nc4cc(OC)ccc4s3)cc2)CC1 was read as TRPML1 inh -7, gsp agonist -2%[15.4 µM], gsp antag 8%, ClpP mod 1.0% and TRPML1 ag 1.1.
Screening CC(C)CCNC(=O)Cn1c(NCCC(C)C)nc2c1c(=O)n(C)c(=O)n2C returned TRPML1 inh 27, gsp agonist 23%, gsp antag 8%, ClpP mod -1.6% and TRPML1 ag -1.3.
For CN(C)c1cccc(C(=O)N/N=C/c2ccsc2)c1 the results were Menin MLL FP FL 4.2, TRPML1 inh 4, gsp agonist 4%[15.4 µM], gsp antag inconclusive, ClpP mod 1.7% and TRPML1 ag -0.7.
Screening CC1(C)CC(c2nc(-c3ccc(Br)cc3)cs2)CCS1 (stereo not drawn) returned Menin MLL FP FL -0.7, TRPML1 inh 17, gsp agonist inconclusive, gsp antag 2%, ClpP mod -7.8% and TRPML1 ag 4.0.
Screening CN(C(=O)c1cccc(NC(=O)Cc2cccc(NC(=O)C3CCN(C(=O)C4CCCC4)CC3)c2)c1)C1CCC1 returned TRPML1 inh 3, gsp antag -10%, ClpP mod -0.4% and TRPML1 ag 2.3.
For C#CCn1c(=NC(=O)CN2C(=O)CCC2=O)sc2cccc(OC)c21 the results were Menin MLL FP FL 0.5, TRPML1 inh 7, gsp agonist -20%, gsp antag -2%, ClpP mod 4.3% and TRPML1 ag 0.5.
Cc1onc(-c2c(Cl)cccc2Cl)c1/C(N)=N/OC(=O)C(C)(C)C was read as Menin MLL FP FL 0.5, TRPML1 inh 10, gsp agonist 9%[15.4 µM], gsp antag -13%, ClpP mod -0.3% and TRPML1 ag 0.5.
Screening Cc1cc(=O)[nH]c(SCC(=O)N2CCCCCC2)n1 returned Menin MLL FP FL -2.2, TRPML1 inh -16, gsp agonist -13%, gsp antag 6%, ClpP mod -0.7% and TRPML1 ag -0.6.
Screening O=C(c1c(F)cccc1Cl)N1CCN(S(=O)(=O)c2ccc3c(c2)OCCCO3)CC1 returned TRPML1 inh 0, gsp agonist -24%, gsp antag 11%, ClpP mod -0.4% and TRPML1 ag 1.7.
CCOc1ccc(C(=O)/C=C/c2ccc(OC)c(OC)c2)cc1 was read as Menin MLL FP FL 1.4, TRPML1 inh -10, gsp agonist 4%[15.4 µM], gsp antag inconclusive and TRPML1 ag 0.3.
Screening C=C(C)Cn1c(C2CC(=O)N(c3ccccc3F)C2)nc2ccccc21 (stereo not drawn) returned Menin MLL FP FL -2.2, TRPML1 inh -9, gsp agonist -1%, gsp antag -3%, ClpP mod -1.2% and TRPML1 ag -0.3.
`Cc1cc(OCc2cc(C(=O)NCC3(C)COC3)no2)cc(C)c1Cl` gave Menin MLL FP FL 1.4, TRPML1 inh 2, gsp agonist 1%, gsp antag 1%, ClpP mod -0.4% and TRPML1 ag 0.0.
O=C(COC(=O)c1cc(-c2ccccc2)nc2ccccc12)Nc1ccc2c(c1)OCO2 was read as Menin MLL FP FL 3.9, TRPML1 inh 16, gsp agonist 13%, gsp antag 2%, ClpP mod 52% and TRPML1 ag 4.3.
CC(C)C(=O)N1N=C(c2ccc(NS(C)(=O)=O)cc2)CC1c1cccs1 (stereo not drawn) was read as Menin MLL FP FL 12, TRPML1 inh 13, gsp agonist -3%[15.4 µM], gsp antag -18%, ClpP mod -2.5% and TRPML1 ag 0.9.
Screening CCOC(=O)c1cnn(CCOC(=O)c2cccs2)c1NC(=O)c1cccs1 returned Menin MLL FP FL 2.7, TRPML1 inh 24, gsp agonist -56%[inhibitor], gsp antag -7%, ClpP mod -0.2% and TRPML1 ag 0.5.
Screening CCCCC(=O)Nc1ccc(C)c(S(=O)(=O)N2CCCCCC2)c1 returned TRPML1 inh -4, gsp agonist -110%[inhibitor], gsp antag -1%, ClpP mod -2.4% and TRPML1 ag -0.2.
CC(=O)Oc1ccc(C(=O)Nc2nccs2)cc1 was read as Menin MLL FP FL 3.7, TRPML1 inh 1, gsp agonist 7%, gsp antag -4%, ClpP mod -6.6% and TRPML1 ag -0.2.
Screening CC(C)(C)c1c(Cl)c(O)c(-c2ccccc2)c(=O)n1-c1ccccc1 returned Menin MLL FP FL -2.6, TRPML1 inh -17, gsp agonist 25%, gsp antag -3% and TRPML1 ag 0.9.
Screening Cc1cc(C)n2nc(C(=O)NNC(=O)c3ccc(Cl)cc3)nc2n1 returned Menin MLL FP FL 2.3, TRPML1 inh -1, gsp agonist inconclusive, gsp antag 7%, ClpP mod -6.7% and TRPML1 ag -0.5.
`CNCc1c(OCc2ccccc2F)ccc2ccccc12` gave Menin MLL FP FL -0.4, TRPML1 inh 10, gsp agonist -4%[15.4 µM] and TRPML1 ag -0.2.
Cc1onc(-c2ccccc2)c1C(=O)NC(=S)NNC(=O)c1cccnc1 was read as TRPML1 inh 12, gsp agonist 11%[15.4 µM], gsp antag 1%, ClpP mod -1.1% and TRPML1 ag 0.0.
Screening Cc1ccc(NC(=O)CSc2ccc3nnc(-c4ccccn4)n3n2)cc1 returned TRPML1 inh -3, gsp agonist inconclusive, gsp antag 8%, ClpP mod -0.8% and TRPML1 ag 0.0.
`CCNCC(=O)Nc1ccc(N2CCOCC2)cc1` gave Menin MLL FP FL 0.6, TRPML1 inh -15, gsp agonist 3%, gsp antag -1%, ClpP mod -2.7% and TRPML1 ag 1.0.
`COc1ccccc1N(C(=O)c1cncc(Br)c1)c1nc(-c2ccc(C)cc2)cs1` gave Menin MLL FP FL 4.4, TRPML1 inh -24, gsp agonist -2%, gsp antag -7%, ClpP mod -0.2% and TRPML1 ag 0.6.
For O=C(Nc1cc2c(cc1C(=O)c1cccc(Br)c1)OCCO2)c1ccccc1F the results were TRPML1 inh 2, ClpP mod -0.6% and TRPML1 ag 1.2.
O=C(CSc1nnc2ccc(-c3ccccn3)nn12)Nc1ccccc1F was read as TRPML1 inh 4, gsp agonist -1%, gsp antag -5%, ClpP mod -25% and TRPML1 ag 0.0.
Screening CCN(C(=O)CSc1nnc2ccccn12)C1CCS(=O)(=O)C1 (stereo not drawn) returned Menin MLL FP FL -1.3, TRPML1 inh -1, gsp agonist 0%[15.4 µM], gsp antag 7%, ClpP mod -0.5% and TRPML1 ag -0.3.
Screening Cc1cc(N2CCOCC2)nc2ccc(NC(=S)NCCC(C)C)cc12 returned Menin MLL FP FL -4.6, TRPML1 inh -9, gsp agonist 30%, gsp antag -15%, ClpP mod 3.1% and TRPML1 ag -0.6.
Screening CCN(CC)C(=O)Cn1cc(C(=O)C(=O)N(C)C2CCN(C)CC2)c2ccccc21 returned TRPML1 inh -23, gsp agonist -41%, gsp antag 8%, ClpP mod -4.9% and TRPML1 ag 0.2.
For CC1CCCN(C(=O)c2cc(-c3cccs3)nc3ccccc23)C1 (stereo not drawn) the results were TRPML1 inh -6, gsp agonist inconclusive, gsp antag -20% and TRPML1 ag 2.3.
